MgrA DNA FP – S. aureus MgrA activity modulators, primary screen, biochemical, S. aureus Newman, fluorescence polarization; MgrA-DNA binding; inhibition, %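 (about 10 µg/mL by stock and volumes)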; hit rate 0.13% among 84,000; AID 602314, 2012;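 active = above 50% in either of two replicates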;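 also: 0% = protein plus DNA without compound and 100% = DNA alone without protein; higher means less MgrA bound to DNA so lower polarization; one replicate is shown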
Sa helicase inh – inhibitors of S. aureus replicative helicase, primary screen, biochemical, fluorescence unwinding readout; inhibition, %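 (tested at about 80 µM)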; AID 485395, 2010; hit rate 0.05% among 120,000; purified S. aureus helicase, fluorescence unwinding assay; about half of the hits fall short of the stated cut;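 active = both duplicates at 50% or more, or one of them with a favoured structure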;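 also: 0% = mean of negative control wells and 100% = mean of positive control wells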
Numbers without * were called inactive; . = no result given. This is a subset. The share of hits here may be higher or lower than overall.

Sequence of screens: MgrA DNA FP, Sa helicase inh
O=C(CSc1nnc(-c2ccccc2)o1)N1CCCC1
    ., 22
O=C(Nc1cccc(C(F)(F)F)c1)c1ccc(F)cc1
    0.9, -17
CC(NC(=O)c1cc(-c2ccc3c(c2)OCO3)nc2ccccc12)C1CCCO1 (stereo not drawn)
    -0.5, 11
CCc1nn(C(CC)C(=O)NCc2ccccc2F)c(=O)c2cc3occc3n12 (stereo not drawn)
    ., 16
CC(C)(C)NC(=O)c1ccccc1NC(=O)c1cccnc1
    -2.2, 4
O=S(=O)(CCOc1ccccc1)N1CCOCC1
    ., 14
N/C(=N\O)c1cnccc1C(F)(F)F
    0.8, .
CC(NC(=O)c1ccco1)C(=O)N1CCc2ccccc2C1 (stereo not drawn)
    ., -16
COc1ccccc1C(=O)Nc1ccc(CC#N)cc1
    1.0, -12
NC(=S)Nc1cc(Cl)ccc1Cl
    2.5, .
O=C(CSc1ccc2c(c1)OCCO2)NC(=O)NC1CCCC1
    ., -6
COC(=O)CN1c2ccccc2NC2=C(C(=O)CC(C)(C)C2)C1c1ccc(OC)cc1 (stereo not drawn)
    -0.3, 2
Cc1onc(-c2c(Cl)cccc2Cl)c1C(=O)NC(=S)Nc1ccccc1
    ., -3
CC1S/C(=N\N=C2\CCCc3ccccc32)NC1=O (stereo not drawn)
    ., 4
COc1ccc2[nH]c3c(=O)n(N)c(=S)[nH]c3c2c1
    ., -34
O=C(NCc1n[nH]c(=S)n1Cc1ccccc1)c1ccccc1
    ., 3
COc1ccc(CNC(=O)CCC2N=C3c4ccccc4N=C(SCC(=O)Nc4cc(C)[nH]n4)N3C2=O)cc1 (stereo not drawn)
    ., -7
O=C1CN(C(=O)Cn2cnc3ccc(Cl)cc3c2=O)c2ccccc2N1
    ., -5
COc1ccc(N2CCN(C(=O)C(NS(=O)(=O)c3ccc4nc(C)sc4c3)C(C)C)CC2)cc1 (stereo not drawn)
    ., 5
Cc1ccccc1NC(=S)NCC(c1cccnc1)N(C)C (stereo not drawn)
    ., -23
O=S(=O)(NCCC12CC3CC(CC(C3)C1)C2)c1cccc2nsnc12
    2.4, -7
O=C(/C=C/c1ccccc1)N1CCN(Cc2ccccc2)CC1
    -1.9, 2
Nc1cc(=O)nc(SCC(=O)Nc2ccc(Cl)cn2)n1-c1ccccc1
    2.0, 17
CC(=O)NN1C(=O)c2cccc3c(N(C)C)ccc(c23)C1=O
    61*, -34
O=C(Nc1ccnn1C1CCCC1)c1cccnc1Oc1ccccc1
    ., -2
O=C(CN1C(=O)c2ccccc2C1=O)Nc1ccc(S(=O)(=O)Nc2ncccn2)cc1
    ., -11
Cc1onc(-c2c(Cl)cccc2Cl)c1NC(=O)O/N=C/c1ccc(N(C)C)cc1
    0.6, .
COc1ccc2nc(Nc3ccccc3)sc2c1
    -0.7, 10
CCOc1ccc(CC(C(=O)NN)C(=O)NN)cc1CN(C)C
    1.3, 4
O=C(c1ccccc1)c1ccc2nc(N3CCCCC3)c3nncn3c2c1
    ., 5
CSc1ccc(Cl)c(C(=O)OCC(=O)N2CCC(C)CC2)c1
    1.3, -22
CCCc1ccc(OCC(O)CN2CC(C)OC(C)C2)cc1 (stereo not drawn)
    -4.8, 0
COC(=O)Cc1nc(NC(=O)c2ccccc2)sc1C
    -2.8, .
CC(C)C1NC(C(=O)O)Cc2c1[nH]c1ccccc21 (stereo not drawn)
    3.2, 11
Cc1csc(NC(=O)CC(C)(C)CC(=O)O)c1-c1nc2ccccc2s1
    -0.6, .
Cc1cc2ccccc2nc1SCCN1CCOCC1
    -0.7, 3
O=C(OCc1cn2ccccc2n1)c1ccc2c(c1)OCCO2
    ., 5
Cc1cc(C)c2c(n1)SCC(=O)N2CC(=O)O
    ., 3
CCOC(=O)C1=C(C)N=c2s/c(=C\c3cc(Br)ccc3OC(C)=O)c(=O)n2C1c1cccc([N+](=O)[O-])c1 (stereo not drawn)
    -5.4, .
O=C1NC2CC2N1C(=O)OCc1ccccc1 (stereo not drawn)
    -0.3, .
CC(=O)NC1C(OC2=CC3OC(=O)CC(C)=C3C=C2)OC(CO)C(O)C1O (stereo not drawn)
    0.6, 3
CCn1c(O)c(C=Nc2ccc(Cl)c(C(=O)O)c2)c(=O)[nH]c1=O
    -1.2, 5
COc1ccc2c(c1)cc1n2CCN=C1N
    -4.9, 21
CC(Oc1ccccc1)c1nc(-c2cccc(Br)c2)no1 (stereo not drawn)
    1.2, -23
O=C(Nc1cccnc1)c1coc(=O)c2ccccc12
    ., 11
COc1ccc(-c2cc(C(=O)Nc3ccc(C)c(C)c3)no2)cc1
    ., 5
CC(Oc1ccccc1)C(=O)N(Cc1nc(-c2ccccc2)no1)C(C)(C)C (stereo not drawn)
    ., -28
N#Cc1ccc(COc2ccc(-n3cnnn3)cc2)cc1
    ., 30
C=CCOc1ccc2c3c(c(=O)oc2c1)CCC3
    1.1, 3
O=C(NCCN1C(=O)S/C(=C\c2ccccc2)C1=O)C1CCCC1
    ., 0
Cc1ccc(NC(=O)N2CCC3(CC2)OCCO3)cc1Cl
    -3.5, -2
Cc1nc(Sc2nnc(C3CC3)o2)c2c(-c3ccccc3)csc2n1
    ., 11
O=c1[nH]c(CCl)nc2ccccc12
    0.0, -11
CC(C#N)Oc1ccc(-c2ccc(C#N)cc2)cc1 (stereo not drawn)
    ., 0
Cc1ccc(S(=O)(=O)/C(C#N)=C/Nc2cc(C(F)(F)F)cc(C(F)(F)F)c2)cc1
    -2.9, .
COC(=O)C1=C(C)NC2=C(C(=O)CC(c3cccs3)C2)C1c1cccs1 (stereo not drawn)
    3.4, 18
S=C(NCCCn1ccnc1)Nc1ccccc1
    ., -23
Cc1ccc2cc3cc(C(=O)NCC4COc5ccccc5O4)sc3nc2c1 (stereo not drawn)
    ., 6
CCOC(=O)c1c(N2CCN(c3ccccc3)CC2)cc(C)nc1C
    ., -25
O=C(CC12CC3CC(CC(C3)C1)C2)N1CCN(c2ccc(F)cc2)CC1
    -1.8, 6

Going on with the list.
Sequence of screens: MgrA DNA FP, Sa helicase inh
COc1ccc(N2C(=O)c3nccnc3C2=O)cc1Cl
    ., -19
NNC(=O)c1ccc(/C=N\O)nc1
    1.0, 1
CC(C)(C)OC(=O)CSc1nnc(-c2nn(Cc3ccccc3)c(=O)c3ccccc23)o1
    ., 8
Nc1c(C(=O)c2ccc(Cl)cc2)sc2nsc(SCCN3CCOCC3)c12
    5.8, .
Clc1ccc(SCc2ccc(-c3nc4ccccc4[nH]3)cc2)cc1
    0.6, .
CC(OC(=O)c1ccco1)C(=O)Nc1nc(-c2ccccc2)cs1 (stereo not drawn)
    ., -7
Cc1nnc(SC(C)C(=O)c2ccc(Br)cc2)n1C (stereo not drawn)
    ., -8
CCSc1nnc(NC(=O)C2CC2)s1
    1.5, 6
O=c1c2c3c(sc2[nH]c(=S)n1Cc1ccccc1)CCCCC3
    7.2, -3
CC[C@@H]1OC(=O)[C@H](C)[C@H](O[C@H]2C[C@@](C)(OC)[C@@H](O)[C@H](C)O2)[C@@H](C)[C@@H](O[C@@H]2O[C@H](C)C[C@H](N(C)C)[C@H]2O)C(C)(O)C[C@@H](C)[C@@H]2NC(COCCOC)OC([C@H]2C)[C@]1(C)O (stereo partly drawn)
    1.4, .
COc1ccc(OC)c(NS(=O)(=O)c2cc(C(F)(F)F)ccc2OCC(F)(F)F)c1
    2.2, .
Cc1ccc(N2CCN(c3ccc(C)cc3)C23C(=O)c2ccccc2C3=O)cc1
    -0.9, 6
NC(=O)C1CCCCN1CC(=O)N1N=C(c2ccc(Cl)cc2)CC1c1ccco1 (stereo not drawn)
    ., 20
CC(C)(C)c1ccc(OCCSc2nc3ccccc3n2CC(N)=O)cc1
    -2.1, .
C[n+]1c2cc(N)ccc2cc2ccc(N)cc21
    30, .
O=c1c(-c2nc(-c3ccc(C(F)(F)F)cc3)no2)cnc2n1CCS2
    ., 17
O=S(=O)(CCSc1ccccc1)c1ccc(Cl)cc1
    -1.0, .
COc1ccccc1NC(=O)NCC(c1ccco1)N1CCCCC1 (stereo not drawn)
    ., -6
OCc1nc2ccccc2n1CC(O)COc1ccc(OCc2ccccc2)cc1 (stereo not drawn)
    ., 1
CCOc1ccsc1C(=O)O
    -2.9, .
COC(=O)c1cc2oc3ccccc3c2n1CC(=O)Nc1cc(C)cc(C)c1
    ., 14
Cc1onc(-c2ccccc2)c1C(=O)NCc1ccc2c(c1)OCO2
    0.5, 9
CC1(C)CC(NC2CC(C)(C)NC(C)(C)C2)CC(C)(C)N1
    ., 11
COC(=O)C1C2C=CC3(CN(Cc4ccco4)C(=O)C13)O2 (stereo not drawn)
    0.0, 14
Brc1ccc2c(ccc[n+]2C/C=C/c2ccccc2)c1
    0.9, 9
Cc1nc2ccccc2[nH]c1=S
    ., -22
CC(C)c1cc(C(=O)Nc2ccc(-c3nnc4n3CCCCC4)cc2)c2cnn(C(C)C)c2n1
    ., 13
Cc1ccc(NC(=O)CCC(=O)c2cccs2)cc1
    -0.3, 5
NC(=O)Cn1c(-c2nonc2N)nc2ccccc21
    2.0, 4
COc1ccc(CCNS(=O)(=O)c2ccc3[nH]c4c(c3c2)CCCC4)cc1OC
    0.7, 7
COc1cccc(C(=O)NC(c2ccco2)c2c(O)ccc3ccccc23)c1 (stereo not drawn)
    2.2, 9
COC(=O)C1=NN(C(=O)c2cccc(OC)c2)C(C)(O)C1 (stereo not drawn)
    2.2, -6
Cc1cc(C(=O)CSC2=C(C#N)C(C)(C)C(C#N)C(=O)N2)c(C)n1-c1ccccc1 (stereo not drawn)
    ., 9
CC(=O)Nc1ccc(NC(=O)C2CC(=O)N(Cc3ccco3)C2)cc1 (stereo not drawn)
    ., 11
CCSC1=C(C#N)C(c2ccc(C(C)C)cc2)C2=C(CCCC2=O)N1 (stereo not drawn)
    0.9, -2
Cc1ccc2cc(CCNC(=O)COc3ccccc3)c(=O)[nH]c2c1
    ., -19
C=CCSc1nnc2c(n1)[nH]c1ccccc12
    ., -11
Cn1c(SCC(=O)c2ccccc2)nnc1C(F)(F)F
    0.5, .
C=CCn1c(SC(C#N)Cc2ccccc2)nnc1C1CCCCC1 (stereo not drawn)
    ., -3
COc1ccc(Cc2nc3ccccc3n2C(C)C)cc1
    ., 9

Sorted by length of the SMILES (ascending): 14 of the compounds above.
Sequence of screens: MgrA DNA FP, Sa helicase inh
Cc1nc2ccccc2[nH]c1=S
    ., -22
C=CCSc1nnc2c(n1)[nH]c1ccccc12
    ., -11
Cc1ccc(NC(=O)CCC(=O)c2cccs2)cc1
    -0.3, 5
Cn1c(SCC(=O)c2ccccc2)nnc1C(F)(F)F
    0.5, .
Brc1ccc2c(ccc[n+]2C/C=C/c2ccccc2)c1
    0.9, 9
C=CCn1c(SC(C#N)Cc2ccccc2)nnc1C1CCCCC1 (stereo not drawn)
    ., -3
COC(=O)C1=NN(C(=O)c2cccc(OC)c2)C(C)(O)C1 (stereo not drawn)
    2.2, -6
CC1(C)CC(NC2CC(C)(C)NC(C)(C)C2)CC(C)(C)N1
    ., 11
Cc1ccc2cc(CCNC(=O)COc3ccccc3)c(=O)[nH]c2c1
    ., -19
CC(=O)Nc1ccc(NC(=O)C2CC(=O)N(Cc3ccco3)C2)cc1 (stereo not drawn)
    ., 11
CCSC1=C(C#N)C(c2ccc(C(C)C)cc2)C2=C(CCCC2=O)N1 (stereo not drawn)
    0.9, -2
COC(=O)c1cc2oc3ccccc3c2n1CC(=O)Nc1cc(C)cc(C)c1
    ., 14
COc1ccc(CCNS(=O)(=O)c2ccc3[nH]c4c(c3c2)CCCC4)cc1OC
    0.7, 7
CC(C)c1cc(C(=O)Nc2ccc(-c3nnc4n3CCCCC4)cc2)c2cnn(C(C)C)c2n1
    ., 13

Carrying on.
Sequence of screens: MgrA DNA FP, Sa helicase inh
CC(O)CNc1nc2ccccc2[nH]1 (stereo not drawn)
    -1.2, 9
CC(C)(C)OC(=O)N1CCN(CCNC(=O)c2ccc(Cl)cc2)CC1
    -1.6, .
Cc1nc2ccccc2nc1OCC(=O)c1ccc(Cl)cc1
    ., 4
COc1ccc(C(=O)NCCc2c[nH]c3ccc(OC)cc23)cc1
    0.7, .
CC(=O)n1nc(C)c(Sc2nnnn2-c2ccccc2)c1C
    ., -12
Cc1ccc(C)c(NC(=O)COC(=O)c2ccc3c(=O)n4c(nc3c2)CCCCC4)c1
    ., 17
O=c1cc(-c2ccc(O)cc2)oc2ccccc12
    ., -1
O=C(c1ccc2nc[nH]c2c1)N1CCN(S(=O)(=O)c2ccccc2C(F)(F)F)CC1
    ., -12
COCc1cc(=O)[nH]c2c1c(C)nn2C
    0.1, .
O=C(NC1CCCCC1)NC1CC2CCC(C1)N2C(=O)NCc1ccccc1 (stereo not drawn)
    -0.2, 15
O=C(Nc1cccc(-c2ncon2)c1)c1cccs1
    -0.6, .
CC(C)(C)S(=O)(=O)c1cccc2ccccc12
    3.2, -2
Cc1cc(-n2c(C)cc(C(=O)CSc3n[nH]c(=O)n3Cc3ccccc3)c2C)no1
    ., 7
COCC(=O)Nc1ccccc1-c1ccccc1
    0.3, -2
Oc1cccc(CN2CCN(C/C=C/c3ccccc3)CC2)c1
    ., -26
NC(=O)COc1ccccc1OCC(N)=O
    1.1, -15
CN1CCN(Nc2nc3c(c(=O)[nH]c(=O)n3C)n2Cc2ccc(F)cc2)CC1
    ., -4
Nc1c(-c2ccccc2)n[nH]c1-c1ccccc1
    -1.5, 11
Cc1cc(NC(=O)CSc2nccn2C)n(-c2ccccc2)n1
    -1.8, .
Cc1csc(Cc2nc(-c3ccc(O)cc3)no2)n1
    ., -22
O=C(c1ccccc1Cl)N(Cc1ccco1)Cc1cc2cc3c(cc2nc1Cl)OCO3
    -1.4, 2

Assay outcomes from PubChem BioAssay.
